EPAC1 agonist: validation of human EPAC1 agonists | O95398 | EPAC1 Rap1b BODIPY-GDP exchange, fluorescence | Potency, µM, for the others: max response, positive = active, most hits filed as activators | 16,000 tested, 1% active | AID 1645883; active means well fitted activation curve with a large enough effect; inconclusive means small, poorly fitted or top-dose-only effect; inactive means no such curve, though single readings can be large or run the other way;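 further: nearly all actives have a fitted effect of over 70% in size; series mostly up to about 76 or 150 µM; scaled to a cAMP control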
Target sequence (O95398 whole entry, looked up): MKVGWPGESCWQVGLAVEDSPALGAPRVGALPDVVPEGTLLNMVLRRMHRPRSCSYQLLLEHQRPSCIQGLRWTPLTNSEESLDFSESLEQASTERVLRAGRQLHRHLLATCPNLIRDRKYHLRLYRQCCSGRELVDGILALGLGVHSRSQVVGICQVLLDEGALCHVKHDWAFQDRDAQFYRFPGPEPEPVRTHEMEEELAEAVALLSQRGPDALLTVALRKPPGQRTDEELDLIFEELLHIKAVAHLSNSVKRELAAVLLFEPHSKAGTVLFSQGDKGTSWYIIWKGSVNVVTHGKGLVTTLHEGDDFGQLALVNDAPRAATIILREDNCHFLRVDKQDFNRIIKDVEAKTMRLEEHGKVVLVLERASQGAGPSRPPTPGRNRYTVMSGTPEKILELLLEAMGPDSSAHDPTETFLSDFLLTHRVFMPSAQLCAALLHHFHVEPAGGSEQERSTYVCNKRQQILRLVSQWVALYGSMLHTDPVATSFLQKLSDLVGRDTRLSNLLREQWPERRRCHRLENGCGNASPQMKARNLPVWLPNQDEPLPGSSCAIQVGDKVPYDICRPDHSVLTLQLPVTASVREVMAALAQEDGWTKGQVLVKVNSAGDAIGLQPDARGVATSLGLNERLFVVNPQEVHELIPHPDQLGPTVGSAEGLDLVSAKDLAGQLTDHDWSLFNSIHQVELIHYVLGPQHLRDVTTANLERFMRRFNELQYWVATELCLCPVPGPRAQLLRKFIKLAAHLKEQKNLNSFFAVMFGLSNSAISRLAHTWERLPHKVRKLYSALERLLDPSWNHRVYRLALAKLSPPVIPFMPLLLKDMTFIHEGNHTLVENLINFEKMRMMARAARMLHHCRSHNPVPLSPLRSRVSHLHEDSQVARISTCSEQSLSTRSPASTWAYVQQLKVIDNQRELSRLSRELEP
* hit, by the source's call; ? = inconclusive; & = joins results of further samples; [ ] = another dose, or the depositor's remark. On the % scale 0 is the no-effect control and ±100 the full control effect; potency means the concentration at half of the fitted maximal effect.

> CC1(C)CCC(=O)N2CC[C@H]3C[C@H](OC(=O)Nc4ccc(Br)cc4)C[C@@H]1[C@H]32
- EPAC1 agonist = ?

> CC(C)/C(O)=C1/C(=O)OC(c2ccoc2)[C@@]2(C)C(O)C(O)[C@@]34OC5(C)OC67CC(C)(C(O)[C@@]6(O)C(O)[C@@]3(O5)C12)C(CC(=O)O)[C@@]74C (stereo not given in full)
- EPAC1 agonist = 7.9%

> COC(=O)N1CCC2(CC1)CCN(c1ncccn1)CC2
- EPAC1 agonist = -63.2%[inhibitor]

> CCCCCC#CCC#CCC#CCC#CCCCC(=O)O
- EPAC1 agonist = -10.4%&-5.7%

> COC(=O)CCC(C)C1CCC2C3C(O)C[C@@H]4CC(O)CC[C@@]4(C)C3CC(O)[C@]12C (stereo not given in full)
- EPAC1 agonist = -43.8%[inhibitor]

> O=C(c1ccco1)N1CCC[C@@]2(CCN(c3cccc(-c4ccccc4)c3)C2)C1
- EPAC1 agonist = 2.6%

> C=Cc1c(C)c2cc3nc(cc4[nH]c(cc5nc(cc1[nH]2)C(C)=C5CCC(=O)OC)c(CCC(=O)O)c4C)[C@@]1(C)C3=CC=C(C(=O)OC)[C@H]1C(=O)OC
- EPAC1 agonist = -3.0%

> COc1cc(=O)n2c(c1C(=O)N(C)Cc1nccs1)CCN(Cc1ccc(F)c(F)c1)CC2
- EPAC1 agonist = -26.0%

> COc1ccc2c(c1)CCc1cnc(-n3ncc(C(=O)N(C)CCc4ccccn4)c3C)nc1-2
- EPAC1 agonist = -16.5%

> COc1ccc(O)c(CN2CCC3(CCC(CNC(=O)c4ccccc4)O3)CC2)c1 (stereo not given)
- EPAC1 agonist = -2.3%

> CS(=O)(=O)Nc1cccc(-c2nccc(-n3ccnc3)n2)c1
- EPAC1 agonist = -15.1%

> COc1ncc2nc(-c3ccc(Cl)cc3)c(=O)n(CCc3ccccc3)c2n1
- EPAC1 agonist = -20.5%

> CN1CCCC(n2nc(Cc3ccc(Cl)cc3)c3ccccc3c2=O)CC1 (stereo not given)
- EPAC1 agonist = -32.6%[inhibitor]

> Cc1sc2ccccc2[n+]1CCc1ccccc1
- EPAC1 agonist = 23.7%

> O=C([C@@H]1C[C@@H](Sc2nc3ccccc3[nH]2)CN1Cc1ccc(Cl)cc1)N1CCN(c2ccccc2F)CC1
- EPAC1 agonist = 0.1%

> COc1cc2c(cc1O)C(Cc1ccc(O)cc1)[N+](C)(C)CC2 (stereo not given)
- EPAC1 agonist = -15.3%

> O=C(O)Cn1c(C(=O)Nc2nc(-c3ccccc3Cl)cs2)cc2ccccc21
- EPAC1 agonist = -34.4%[inhibitor]

> COc1ccc2[nH]cc(CCNC(=O)C3CC3)c2c1
- EPAC1 agonist = -17.7%

> O=S(=O)(c1ccccc1)N1CCC[C@@]2(CCN(c3cccc(-c4ccccc4)c3)C2)C1
- EPAC1 agonist = ?

> CCNc1ncc2nc(-c3cccs3)c(=O)n(Cc3cccs3)c2n1
- EPAC1 agonist = -5.9%

> CC(CSC(=O)c1ccccc1)C(=O)N1C[C@@H](Sc2ccccc2)C[C@H]1C(=O)O (stereo not given in full)
- EPAC1 agonist = 3.6%

> Fc1ccc(Nc2ncncc2-c2ccoc2)cc1
- EPAC1 agonist = 8.1%

> Cc1cnc(C)c(-c2cc(F)cc3c2OC(CNC(=O)Cc2c(C)noc2C)C3)n1 (stereo not given)
- EPAC1 agonist = 2.5%

> Nc1ncnc2c1ncn2[C@@H]1O[C@H](COP(=O)(O)O)[C@@H](O)[C@H]1O
- EPAC1 agonist = 5.1%

> O=c1c(-c2cccs2)nc2cnc(N3CCNCC3)nc2n1CCc1ccccc1
- EPAC1 agonist = 6.3%

> CN(C)Cc1ccccc1-c1cncnc1Nc1ccccc1
- EPAC1 agonist = -11.5%

> NC(N)=NCCN1CCCCCCC1
- EPAC1 agonist = ?

> CC(C)c1c(C(=O)NCc2ccncc2)cnn1-c1nccc(-c2cccs2)n1
- EPAC1 agonist = 14.2%

> Fc1ccc(C(OCCCc2cnc[nH]2)c2ccc(F)cc2)cc1
- EPAC1 agonist = -8.1%

> COc1ccc(-n2c(=O)c(C)nc3cnc(N4CCNCC4)nc32)cc1
- EPAC1 agonist = -52.9%[inhibitor]

> CN1[C@@H](CC(=O)c2ccccc2)CCC[C@H]1C[C@H](O)c1ccccc1
- EPAC1 agonist = ?

> O=C(Cc1ccc(Cl)cc1)c1c(O)cc(O)cc1O
- EPAC1 agonist = 6.7%

> O=C(C[n+]1cccc(Br)c1)c1ccc(Br)cc1
- EPAC1 agonist = 18.8%

> CN(C)c1ncc2nc(-c3cn(C)c4ccccc34)c(=O)n(C[C@H]3CCCO3)c2n1
- EPAC1 agonist = ?

> CCCCc1ncc(/C=C(\Cc2cccs2)C(=O)O)n1Cc1ccc(C(=O)O)cc1
- EPAC1 agonist = -16.4%

> COCCNc1nc(-c2ccccc2C(F)(F)F)nc2ccccc12
- EPAC1 agonist = -38.1%[inhibitor]

> O=c1c(-c2ccc(F)cc2)nc2cnc(Nc3ccccc3)nc2n1C[C@H]1CCCO1
- EPAC1 agonist = -23.8%

> O=C1N[C@@H](Cc2c[nH]c3ccccc23)C(=O)N[C@H]1Cc1c[nH]c2ccccc12
- EPAC1 agonist = 3.7%

> CC(=O)SCC(CC(=O)c1ccc(C)cc1)C(=O)O (stereo not given)
- EPAC1 agonist = 15.3%

> Cc1ncc2c(c1CNS(=O)(=O)N(C)C)CCN(C(=O)/C=C/c1ccccc1Cl)C2
- EPAC1 agonist = -3.6%

> Cc1c(C(=O)N(C)C2CCOC2)sc2ncnc(NCC3(c4ccccc4)CCOCC3)c12 (stereo not given)
- EPAC1 agonist = -3.8%

> CCC(CO)NCCNC(CC)CO (stereo not given)
- EPAC1 agonist = -11.4%

> CC(CCc1ccc(O)cc1)NCCc1ccc(O)c(O)c1 (stereo not given)
- EPAC1 agonist = -2.1%&-61.5%

> CC/C=C\C/C=C\C/C=C\C/C=C\C/C=C\CCCCCC(=O)O
- EPAC1 agonist = -10.7%

> CC(C)CN(C[C@@H](OP(=O)(O)O)[C@H](Cc1ccccc1)NC(=O)O[C@H]1CCOC1)S(=O)(=O)c1ccc(N)cc1
- EPAC1 agonist = -15.4%

Reformatted with tabs: part of the list above.
Structure	EPAC1 agonist
CN(C)c1ncc2nc(-c3cn(C)c4ccccc34)c(=O)n(C[C@H]3CCCO3)c2n1	?
CCCCc1ncc(/C=C(\Cc2cccs2)C(=O)O)n1Cc1ccc(C(=O)O)cc1	-16.4%
COCCNc1nc(-c2ccccc2C(F)(F)F)nc2ccccc12	-38.1%[inhibitor]
O=c1c(-c2ccc(F)cc2)nc2cnc(Nc3ccccc3)nc2n1C[C@H]1CCCO1	-23.8%
O=C1N[C@@H](Cc2c[nH]c3ccccc23)C(=O)N[C@H]1Cc1c[nH]c2ccccc12	3.7%
CC(=O)SCC(CC(=O)c1ccc(C)cc1)C(=O)O (stereo not given)	15.3%
Cc1ncc2c(c1CNS(=O)(=O)N(C)C)CCN(C(=O)/C=C/c1ccccc1Cl)C2	-3.6%
Cc1c(C(=O)N(C)C2CCOC2)sc2ncnc(NCC3(c4ccccc4)CCOCC3)c12 (stereo not given)	-3.8%
CCC(CO)NCCNC(CC)CO (stereo not given)	-11.4%
CC(CCc1ccc(O)cc1)NCCc1ccc(O)c(O)c1 (stereo not given)	-2.1%&-61.5%
CC/C=C\C/C=C\C/C=C\C/C=C\C/C=C\CCCCCC(=O)O	-10.7%
CC(C)CN(C[C@@H](OP(=O)(O)O)[C@H](Cc1ccccc1)NC(=O)O[C@H]1CCOC1)S(=O)(=O)c1ccc(N)cc1	-15.4%

Next records follow:
> N[C@H](Cn1ccc(=O)c(O)c1)C(=O)O
- EPAC1 agonist = 1.3%

> CCNc1ncc2nc(C)c(=O)n(Cc3cccs3)c2n1
- EPAC1 agonist = -23.3%

> CCCCC1CN(CCNC(=O)c2ccccn2)Cc2ccccc2O1 (stereo not given)
- EPAC1 agonist = -9.7%

> O=C(c1ccncc1)N1CCC[C@@]2(CCN(c3ccccn3)C2)C1
- EPAC1 agonist = -5.7%

> O=C(c1cc(C(F)(F)F)cc(C(F)(F)F)c1)N1CCC2(CC1)CN(c1ncccn1)C2
- EPAC1 agonist = -88.3%[inhibitor]

> CCCCCCCCCCCCCCCC(=O)OC[C@@H](NC(=O)C(Cl)Cl)[C@H](O)c1ccc([N+](=O)[O-])cc1
- EPAC1 agonist = 5.5%

> CC(C)(CNC(=O)c1cnn(-c2ncc3c(n2)-c2ccccc2CCC3)c1C1CC1)N1CCOCC1
- EPAC1 agonist = 2.3%

> COc1c(C=O)c(O)cc2c1C(=O)c1ccccc1C2=O
- EPAC1 agonist = 2.3%&-16.0%

> O=C1c2ccccc2C(=O)c2cc(Cn3cc(-c4cccc(C(F)(F)F)c4)nn3)ccc21
- EPAC1 agonist = 1.0%

> COc1ccc(OC)c(CN2CCCC(c3nc(-c4ccncc4)ncc3-c3ccccc3C)C2)c1 (stereo not given)
- EPAC1 agonist = 2.4%

> O=C(O)[C@H]1CCCNC1
- EPAC1 agonist = -9.8%

> COc1ccc(CN2CCC(n3cc(C(=O)N4CCCC4)nn3)CC2)c(OC)c1C
- EPAC1 agonist = 1.1%

> COc1cc2c(cc1OC)-c1cc3ccc(OC)c(OC)c3c[n+]1CC2
- EPAC1 agonist = 29.1%

> O=C(c1ccc2c(c1)OCO2)N1CCCCC1
- EPAC1 agonist = 3.7%

> CCCCCCCCCCCCCCCC(=O)O[C@H]1[C@@H](O)[C@@H](O)[C@@H]([C@H](NC(=O)[C@@H]2C[C@@H](CCC)CN2C)[C@H](C)Cl)O[C@@H]1SC
- EPAC1 agonist = -195.1%[inhibitor]

> CC(=O)OC1C=C[C@]2(C)C(CC(OC(C)=O)[C@@]3(C)C4=CC(=O)OC(c5ccoc5)[C@]4(C)CCC23)C1(C)C (stereo not given in full)
- EPAC1 agonist = ?

> CC(C)(C)CC(C)(C)N=C1Nc2ccc([N+](=O)[O-])cc2N[C@]12C[C@H]1CCCC(=O)N3CC[C@@H](C2)[C@@H]13
- EPAC1 agonist = -68.0%[inhibitor]

> CCC(=O)O[C@@H]1CC(=O)O[C@H](C)C/C=C/C=C/[C@H](O)[C@H](C)C[C@H](CC=O)[C@H](O[C@@H]2O[C@H](C)[C@@H](O[C@H]3C[C@@](C)(O)[C@@H](OC(=O)CC)[C@H](C)O3)[C@H](N(C)C)[C@H]2O)[C@H]1OC
- EPAC1 agonist = -12.5%

> CN1[C@H](CC(=O)c2ccccc2)CCC[C@H]1C[C@@H](O)c1ccccc1
- EPAC1 agonist = -4.5%

> CNc1ncncc1-c1ccccc1C(F)(F)F
- EPAC1 agonist = 6.7%

> Cc1ncc(C[n+]2csc(CCOP(=O)(O)O)c2C)c(N)n1
- EPAC1 agonist = 1.0%

> N#CCCn1c(=O)c(-c2cccc(C#N)c2)nc2cnc(N3CCOCC3)nc21
- EPAC1 agonist = -47.1%[inhibitor]

> COc1ccc(O)c(CN2CCC3(CCC(CNC(=O)c4ccco4)O3)CC2)c1 (stereo not given)
- EPAC1 agonist = -15.9%

> C[N+](C)(C)CCOP(=O)([O-])OP(=O)(O)OCC1OC(n2ccc(N)nc2=O)C(O)C1O (stereo not given)
- EPAC1 agonist = ?

> CCOC(=O)OC(C)OC1=C(C(=O)Nc2ccccn2)N(C)S(=O)(=O)c2ccccc21 (stereo not given)
- EPAC1 agonist = -27.7%

> Cc1csc(C(C)N(C)C(=O)c2cnn(-c3nccc(-c4cc(C)sc4C)n3)c2C)n1 (stereo not given)
- EPAC1 agonist = 3.9%

> C[C@@H]1Nc2ccc(Cl)cc2S(=O)(=O)N1
- EPAC1 agonist = -9.4%

> Cc1ccc(Nc2nccc(N(C)c3ccc4c(C)n(C)nc4c3)n2)cc1S(N)(=O)=O
- EPAC1 agonist = 6.5%

> COC(=O)C1=C(C)NC(C)=C(C(=O)OCC(C)C)C1c1ccccc1[N+](=O)[O-] (stereo not given)
- EPAC1 agonist = -71.8%[inhibitor]

> Oc1ccc(/C=C/c2ccc(/C=C/c3ccc(O)cc3)c(Br)c2)cc1
- EPAC1 agonist = -8.3%

> O=C(CCCN1CCN(c2ccc(F)cc2)CC1)NC1c2ccccc2CSc2ccccc21 (stereo not given)
- EPAC1 agonist = -13.6%

> C[C@@H]1CN(Cc2ccc3c(c2)CN(C(=O)CN2CCOc4ccccc4C2)CCO3)C[C@H](C)O1
- EPAC1 agonist = 1.9%

> COc1ccccc1CN1[C@@H](CC(=O)O)c2ccccc2S1(=O)=O
- EPAC1 agonist = 6.8%

> CN(C)Cc1ccccc1-c1nccc(NC2CC2)n1
- EPAC1 agonist = -1.8%

> Cc1c(C(=O)N2CCCCC2c2cccnc2)sc2ncnc(NCc3cccs3)c12 (stereo not given)
- EPAC1 agonist = 0.1%

> CCCCC(CC)COC(=O)C(C#N)=C(c1ccccc1)c1ccccc1 (stereo not given)
- EPAC1 agonist = 15.0%

> CCCCCCCCCCCCC/C=C/[C@@H](O)[C@H](CO)NCCCCCCCC
- EPAC1 agonist = -22.1%

> O=C(C1CCCCC1)N(CCN1CCN(c2ccccc2CO)CC1)c1ccccn1
- EPAC1 agonist = -6.6%

> COCCn1c(=O)c(-c2cn(C)c3ccccc23)nc2cnc(Oc3ccccc3)nc21
- EPAC1 agonist = 8.3%

> COc1ccccc1N1CCN(CCCCN2C(=O)CCC2=O)CC1
- EPAC1 agonist = -6.7%&-17.9%

> O=C(O)c1cccc(-c2noc(-c3ccccc3F)n2)c1
- EPAC1 agonist = -1.1%

> COc1cc(=O)n2c(c1C(=O)N(C)Cc1nonc1C)CCN(Cc1ccc(C)cc1C)CC2
- EPAC1 agonist = 3.0%

> Cc1cnc(CNc2ncncc2-c2cccc(NS(C)(=O)=O)c2)cn1
- EPAC1 agonist = 13.9%

> CNc1nc(-c2ccccc2Cl)nc2ccccc12
- EPAC1 agonist = 24.7%

> C[N+]1(CCCCC[N+]2(C)CCCC2)CCCC1
- EPAC1 agonist = 1.6%&0.5%&-28.6%

> COc1ccc(-c2nc3cnc(N(C)C)nc3n(Cc3ccc(F)cc3)c2=O)cc1
- EPAC1 agonist = -30.9%[inhibitor]

> CCNc1ncc2nc(-c3ccc(OC)cc3)c(=O)n(Cc3cccs3)c2n1
- EPAC1 agonist = ?

Compound activity as filed in PubChem BioAssay.

Some of the compounds tested, so the mix of outcomes need not match the whole.
